Source: PubChem BioAssay (several laboratories)
Proteasome disasm: blocks ATP-dependent breakdown of the yeast 26S proteasome. anti-FLAG beads, GFP-proteasome disassembly, flow cytometry. AID 751. inhibition of disassembly, % (concentration not given with the values). actives 0.2% (n = 24,000);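 active means above 40%; inconclusive means likely self-fluorescent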;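 further: plate controls were ATP control with full disassembly for no effect and ATP-gamma-S intact proteasomes for full effect; higher percent means more bead fluorescence retained so stronger block of disassembly; stock transfer was 100 nL into about 10 µL; wells with too few beads may also be inconclusive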
VCAM-1 up: boosters of cytokine-driven VCAM-1 levels – cell-based, plate reader, pooled HUVEC, TNFa stimulus (AID 455). actives 0.2% (n = 10,000). augmentation, % at 5 µM. HUVEC TNFa-induced VCAM-1 immunofluorescence, plate reader; numbers were filed only for top-ranked candidate wells;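 active means a compound raising TNF-alpha-driven VCAM-1 surface staining, with its hit status upheld on visual or statistical review; inactive means the rest, including hits rejected on review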;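 further: 0% = TNFa with vehicle and 100% = strongest image-checked hit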
The depositor's hits bear a star; i = inactive; ? = inconclusive; · = no result given. Not all compounds are listed, so the mix of outcomes need not match the whole.

Values run as follows: Proteasome disasm	VCAM-1 up
COc1ccc2oc(C(=O)CCC(=O)O)c(N)c2c1
 : -1.2	·
COc1ccc(C)cc1NS(=O)(=O)c1cccc2nonc12
 : -0.7	·
Cc1cc(C)n2nc(SCC(=O)NCc3ccco3)nc2n1
 : 1.8	·
Cn1nc(CC(=O)Nc2ncc(Br)s2)c2ccccc2c1=O
 : -0.7	·
CCOCCCn1c(=NC(C)=O)c(C(=O)OCC)cc2c(=O)n3ccccc3nc21
 : -1.1	i
O=C(O)c1ccc(NC(=O)c2cccs2)cc1
 : -9.2	i
Cc1cc(N2CCN(C3CCCC3)CC2)n2c(nc3ccccc32)c1C#N
 : -1.0	i
O=C(CCCCCn1c(=O)[nH]c2ccccc2c1=O)NCCCN1CCN(c2ccccc2F)CC1
 : 1.6	·
CCOc1ccc(N2C(=O)c3cccnc3C2Nc2ccc(OC)cc2)cc1 (stereo not given)
 : -0.6	·
COc1ccc(-n2c(=O)c3ccccc3n(CC(=O)NC3CCCC3)c2=O)c(OC)c1
 : 0.9	·
CS(=O)(=O)Nc1ccc(C(=O)NCc2ccco2)cc1
 : -0.8	i
O=C(CCSCCc1ccccn1)Nc1nccs1
 : -0.2	·
O=C(CCCOc1ccccc1)N1CCN(c2ccccn2)CC1
 : -0.6	i
CCN(CC)CCn1c(=N)n(CCO)c2ccccc21
 : 1.9	i
CCC1(C)Cc2c(C#N)c(N)n(-c3ccccc3)c(=O)c2CO1 (stereo not given)
 : -0.9	i
COC(=O)c1cccc(Nc2cc(C)nc(-c3ccccc3O)n2)c1
 : -0.1	i
COc1ccc(-c2c3c(=O)n(C)c(=O)n(C)c3cn2-c2cccc(OC)c2)cc1
 : 0.6	i
CC(C)Oc1ccc2c(=O)c(-c3ccccc3)coc2c1
 : 1.1	i
CC(=O)N1CCc2cc(C(=O)CN3CCC(C)CC3)ccc21
 : 3.9	·
Cc1ccc(CCNC(=O)C2CCN(C(=O)N(C)C)CC2)cc1
 : -0.6	·
CCCn1c(CNC(=O)Cc2ccccc2)nc2ccccc21
 : -0.1	·
Cc1ccccc1Cc1c(C)nc2nc(SCC(=O)NCc3ccco3)nn2c1C
 : -0.1	·
N/C(=N/O)c1nc(N2CCCCC2)nc(N2CCCCC2)n1
 : -0.6	i
O/N=C1\CC/C(=N\O)c2nn(-c3ccc(Cl)cc3Cl)nc21
 : 1.3	·
CCN1CCN(c2ncnc3sc(C(=O)Nc4ccccc4F)c(C)c23)CC1
 : -0.4	·
CC1CC(C)CN(C(=O)CSc2nnc(-c3ccc(Cl)cc3)o2)C1 (stereo not given)
 : -1.2	·
CCN(C(=O)c1ccnc(C(C)(C)C)c1)c1ccccc1
 : 3.0	i
CCOC(=O)C(C)n1nc(C)c2sc3ccccc3c2c1=O (stereo not given)
 : -0.7	·
O=C(CSc1nnc(-c2cccnc2)o1)Nc1ccccn1
 : -0.9	i
CCn1c(=O)cc(SCC(=O)Nc2ccc3c(c2)OCO3)c2ccccc21
 : -1.0	i
Cc1cccc(CCNC(=O)CCc2nc(-c3ccccc3F)no2)c1
 : -0.1	i
CSc1nnc(Cn2c(=O)sc3ccccc32)n1CCc1ccccc1
 : 1.7	·
COc1cccc(-c2noc(N)c2C#N)c1
 : -1.1	·
CCOC(=O)C1CCN(c2c(NCCCN(C)C3CCCCC3)c(=O)c2=O)CC1
 : -1.3	·
Cc1cccc(N2CCN(C(=O)c3ccc(N4CCCC4=O)cc3)CC2C)c1 (stereo not given)
 : 0.2	·
O=C(CSc1nc(O)c(Cc2ccccc2)c(=O)[nH]1)Nc1ccccc1
 : 0.0	i
CC1(C)CNC(=O)c2sc(N3CCOCC3)nc2C1
 : 1.0	i
O=C(CCn1c(=O)[nH]c2ccccc2c1=O)Nc1ccccc1
 : 0.7	·
COc1ccccc1NC(=O)N1CCN(c2cccc(C(F)(F)F)c2)CC1
 : 0.4	i
O=C(Cn1cnc2c(cnn2-c2ccccc2)c1=O)NCCc1ccccc1
 : 0.3	i
Cc1cccc(-c2nc(CS(=O)CC(=O)NC3CCCC3)c(C)o2)c1 (stereo not given)
 : 1.1	·
CC(=O)N(CCN(C(C)=O)c1ccccc1)c1ccccc1
 : -0.1	i
CCOC(=O)N1CCN(C(=O)c2oc3ccc(S(=O)(=O)N4CC(C)CC(C)C4)cc3c2C)CC1 (stereo not given)
 : 1.1	·
COC(=O)C(C)C1Sc2ccccc2NC1=O (stereo not given)
 : -0.2	i
Cn1c(=O)c2c(nc(SCCCC#N)n2Cc2ccccc2F)n(C)c1=O
 : 0.1	i
Brc1ccc2c(c1)c1nc3ccccc3nc1n2CCN1CCOCC1
 : 0.6	·
Cc1ccc(C)c(N2CCN(S(=O)(=O)c3ccc4c(c3)OCCO4)CC2)c1
 : -3.2	i
CC(C)NC(=O)c1cc(-c2ccco2)on1
 : -0.1	·
CCN(CC)S(=O)(=O)c1ccc(C(=O)Oc2ccc3c(c2)OCO3)cc1
 : -1.7	i
O=C(CCn1cccc1)Nc1cccc(F)c1
 : 0.8	·
CCOC(=O)C1=C(C)N=C2SCCC(=O)N2C1c1cc(Br)ccc1OC (stereo not given)
 : -0.7	i
O=C(CSc1nnc(-c2ccco2)c(-c2ccco2)n1)Nc1ccccc1
 : 2.4	i
CCCCCC1CC(CC(C)C(=O)Nc2nncs2)C(=O)O1 (stereo not given)
 : 0.1	i
O=C1c2cccnc2C(O)N1Cc1ccco1 (stereo not given)
 : -1.9	·
O=C(NCc1ccccc1)c1cc(S(=O)(=O)N2CCC3(CC2)OCCO3)ccc1F
 : 2.3	·
CCN(CC)CCN1C(=O)C(=O)/C(=C(/O)c2c(C)[nH]c(C(=O)OC)c2C)C1c1ccccc1OC (stereo not given)
 : -0.5	i
Cn1c(=O)n(CCc2ccccc2)c(=O)c2c1nc1n2CCN1c1ccccc1
 : -0.4	·
CC(=O)NC(C)C(c1cccs1)N1CCN(c2ccccc2)CC1 (stereo not given)
 : 2.5	·
Cc1ccc(Cn2nnc3c(=O)[nH]c(C4CCN(S(=O)(=O)c5ccc(F)cc5)CC4)nc32)cc1
 : -1.2	i
Cc1cc(C)n2nc(SCC(=O)Nc3ccc(F)cc3)nc2n1
 : -0.7	·

Compound profiles (already shown). Values in the order: Proteasome disasm | VCAM-1 up
`O=C(CCn1c(=O)[nH]c2ccccc2c1=O)Nc1ccccc1` reads 0.7 | ·
`CCOC(=O)C1CCN(c2c(NCCCN(C)C3CCCCC3)c(=O)c2=O)CC1` reads -1.3 | ·

Going on with the list:
Values run as follows: Proteasome disasm	VCAM-1 up
Cn1c(=O)n(C)c2cc(CNc3ccc(N4CCOCC4)c(C(=O)O)c3)ccc21
 : 0.6	i
Cc1ccc(S(=O)(=O)N2CCOCC2)cc1C(=O)Nc1ccccn1
 : -1.2	i
COCCCNC(=O)CS(=O)Cc1nc(-c2ccccc2C)oc1C (stereo not given)
 : 1.5	·
CCOC(=O)C1CCN(S(=O)(=O)c2cnc[nH]2)CC1
 : 1.4	·
Cn1c(CNc2ccccc2O)nc2ccccc21
 : 2.1	·
CC(C)COc1ccc(C(=O)OCCN2CCOCC2)cc1
 : -1.8	i
O=C(COc1ccccc1)N1CCN=C1SCc1cccnc1
 : -1.2	·
COc1cc(NC(=O)c2cc(-c3ccco3)on2)c(OC)cc1Cl
 : 1.5	·
Cc1nc2ccc(S(=O)(=O)NC(C(=O)Nc3nccs3)C(C)C)cc2s1 (stereo not given)
 : 0.8	i
CCOC(=O)N1CCN(C(=O)CCCn2c(=O)[nH]c3ccccc3c2=O)CC1
 : -1.4	·
O=C(CCn1nc(-c2ccccc2)ccc1=O)N1CCOCC1
 : 0.1	·
O=C(c1ccc(Cl)cc1Cl)N1CCC(c2nc3c(nnn3Cc3ccco3)c(=O)[nH]2)CC1
 : -0.4	·
Cc1ccc(NC(=O)CCC(=O)OCC(F)(F)C(F)F)cc1
 : -0.8	i
COc1ccc(OC)c(-c2cc(C(=O)NCCCn3ccnc3)no2)c1
 : -0.7	·
O=C(COc1ccc(Cl)cc1)NCc1nnc(SCC(=O)NCc2ccc3c(c2)OCO3)o1
 : -2.2	·
COc1cccc(C2CC(=O)Nc3c2c(=O)n(C)c(=O)n3C)c1OC (stereo not given)
 : -0.6	i
CCn1nnnc1SCC(=O)Nc1nnc(C(C)C)s1
 : -0.4	i
N#CC1=C(N)C(C#N)(C#N)[C@H](c2ccsc2)[C@H]2COCC=C12
 : 1.5	i
CCOC(=O)CSc1nnc(CNC(=O)c2ccc(S(=O)(=O)N3CCCC3)cc2)n1C
 : -0.8	i
Cc1cccc(NC(=O)CSc2nnc(NC(=O)CN3CCOCC3)s2)c1
 : 0.2	·
O=C(Nc1cccc(-c2nc3cccnc3s2)c1)c1ccco1
 : 0.8	·
CC(=O)Nc1c(-c2ccc(F)cc2)nc2ccccn12
 : 1.2	i
CCn1c(=O)cc(OCC(=O)Nc2ccc3c(c2)OCCO3)c2ccccc21
 : 1.1	·
Cc1ccc2oc(=O)c3cc(C(=O)N4CCN(c5ncccn5)CC4)sc3c2c1
 : -0.2	·
CS(=O)(=O)N1CCCC(C(=O)NCc2ccc(F)cc2)C1 (stereo not given)
 : 0.1	·
COc1ccc(-c2cc(C(=O)NCc3cccnc3)no2)cc1
 : -0.3	·
O=C(NCc1n[nH]c(=S)n1-c1ccc(F)cc1)c1ccc(S(=O)(=O)N2CCCC2)cc1
 : -2.1	·
CCOc1ccc(OCC)c(S(=O)(=O)NCc2ccc3c(c2)OCO3)c1
 : 1.1	·
O=C(O)c1cccc(-n2cccc2/C=N/O)c1
 : 0.5	·
Fc1ccc(C(c2ccc(F)cc2)N2CCN(C/C=C/c3ccccc3)CC2)cc1
 : 0.7	i

Five compounds already listed, ordered by length of the SMILES, falling.
Values run as follows: Proteasome disasm	VCAM-1 up
Cn1c(=O)n(C)c2cc(CNc3ccc(N4CCOCC4)c(C(=O)O)c3)ccc21
 : 0.6	i
Cn1c(=O)c2c(nc(SCCCC#N)n2Cc2ccccc2F)n(C)c1=O
 : 0.1	i
COCCCNC(=O)CS(=O)Cc1nc(-c2ccccc2C)oc1C (stereo not given)
 : 1.5	·
O=C(CCCOc1ccccc1)N1CCN(c2ccccn2)CC1
 : -0.6	i
CC(C)NC(=O)c1cc(-c2ccco2)on1
 : -0.1	·

Remaining list, next part:
Values run as follows: Proteasome disasm	VCAM-1 up
COC(=O)c1ccccc1NC(=O)Nc1cccs1
 : 0.2	i
Cn1cccc1Cc1nnc(SCC(=O)Nc2ccc3c(c2)OCO3)n1CCc1ccccc1
 : -1.0	·
Cc1ccc(Cc2c(C)nc3nc(SCC(=O)NCc4ccco4)nn3c2C)cc1
 : 38	·
COc1cccc(NC(=O)CSc2nnc(Cc3cccn3C)n2-c2ccc(F)cc2)c1
 : 2.9	i
COc1cccc2cc(C(=O)n3ccc(C)n3)c(=O)oc12
 : -1.4	i
COc1cccc(C(=O)NC(C)C(c2cccs2)N2CCN(C)CC2)c1 (stereo not given)
 : -0.4	·
CCN(CC)c1ccc(NC(=O)C2CCCN(S(=O)(=O)c3cnc[nH]3)C2)c(C)c1 (stereo not given)
 : -1.1	·
CC(=O)SCC(=O)N=c1sc2cc(F)ccc2n1C
 : -1.8	i
CCc1nc2sc3c(c2c(=O)o1)CCCC3
 : 1.7	i
CCCSc1nnc(Cn2c(=O)sc3ccccc32)n1-c1ccccc1
 : -1.1	·
CCCCN1CC(COc2ccccc2)OC1=O (stereo not given)
 : 0.1	·
CCOC(=O)N1CCC(NC(=O)C2CCCCN2S(=O)(=O)c2ccc(F)cc2)CC1 (stereo not given)
 : -5.3	·
Cc1nnc(SCc2cccc(Oc3ccccc3)c2)n1N
 : 1.9	i
Cc1ccc(NC(=O)CSc2nnc(-c3ccncc3)n2C)cc1C
 : -1.9	i
COc1ccccc1C1CC(=O)NC(C)=C1C(=O)OCC1CCCO1 (stereo not given)
 : -0.5	·
COCCN1C(=O)C(=O)/C(=C(/O)c2ccc(OC(C)C)cc2)C1c1cccnc1 (stereo not given)
 : -0.2	i
COc1ccc(S(=O)(=O)N2CCCC(C(=O)NCc3ccccn3)C2)cc1 (stereo not given)
 : 0.1	i
Cc1cc(=O)oc(C)c1C(=O)NCc1ccc(F)cc1
 : -1.6	·
CCCN(CCC)C(=O)COc1cc(=O)n(CC)c2ccccc12
 : 2.5	·
O=C1CSc2ccccc2N1Cc1ccc(F)cc1
 : 0.6	·
COc1ccc(CC(=O)Nc2ccc(OC)c(NC(=O)c3ccco3)c2)cc1
 : -2.1	i
N#Cc1nc(COc2ccccc2Cl)oc1N1CCCCCC1
 : -0.5	i
CC1NC(=O)NC1CCCCCC(=O)NCCc1ccccc1 (stereo not given)
 : ?	i
COC(=O)c1cn(NC(=O)C2CCCCC2)c(=O)c2ccccc12
 : 0.1	·
CCOC(=O)c1c(C)c(C(=O)NC2CCCCCC2)c(C)n1C
 : 0.2	·
Cc1cc2ncc(C(=O)Nc3ccccc3)c(C)n2n1
 : -0.2	i
COc1ccccc1N1CCN(c2cc(C)nc3nc(C)nn23)CC1
 : -1.4	·
COc1cccc(NC(=O)C2CCCN2C(=O)Nc2cccc(F)c2)c1 (stereo not given)
 : 3.4	i
O=C(Nc1nc(-c2ccncc2)cs1)C1COc2ccccc2O1 (stereo not given)
 : -0.2	21
CC1CCN(CCCNC(=O)c2coc3nc4ccccc4nc23)CC1
 : 11	i
CC(=O)c1ccc(OCC(O)CN2CCN(c3ccccn3)CC2)cc1 (stereo not given)
 : 0.7	·
COc1ccc(NC(=O)CSc2nnc(CNC(=O)COc3ccc(Cl)cc3)o2)c(OC)c1
 : 5.2	·
c1ccc2c(-c3nc(-c4ccncc4)no3)cccc2c1
 : 1.8	i
COc1ccccc1N1C(=O)CC(Sc2nc(C)cc(C)n2)C1=O (stereo not given)
 : 0.5	i
